# Screening data deposited in PubChem BioAssay by National Center for Advancing Translational Sciences (NCATS).
# VDR inh = vitamin D3 receptor (human) inhibition; actives 0.93% (n = 400,000); Potency, µM, for the others: max response, negative = inhibition, hits mostly inhibitors; VDR-SRC2-3 peptide fluorescence polarization, 2 h; P11473; active = well fitted inhibition curve with a large enough effect; note: series mostly up to about 120 µM
# Target sequence (P11473 whole entry, looked up): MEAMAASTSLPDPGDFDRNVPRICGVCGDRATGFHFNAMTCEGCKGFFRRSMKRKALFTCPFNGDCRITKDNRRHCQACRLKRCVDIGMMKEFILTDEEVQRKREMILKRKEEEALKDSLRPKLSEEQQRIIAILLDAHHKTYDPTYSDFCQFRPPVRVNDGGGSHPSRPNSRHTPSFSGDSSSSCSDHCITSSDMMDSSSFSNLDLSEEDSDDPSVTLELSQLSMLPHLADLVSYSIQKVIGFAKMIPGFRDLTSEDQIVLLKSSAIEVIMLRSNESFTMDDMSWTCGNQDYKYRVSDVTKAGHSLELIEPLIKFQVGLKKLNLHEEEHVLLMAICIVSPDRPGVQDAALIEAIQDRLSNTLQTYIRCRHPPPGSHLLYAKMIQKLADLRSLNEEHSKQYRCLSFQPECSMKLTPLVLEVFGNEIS
#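 Fluorescence polarization assay of small-molecule disruption of VDR binding to coregulator peptide SRC2-3. Compounds and controls pin-transferred, then read after 2 h incubation at ambient room temperature.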
# An asterisk follows results filed as active; & = joins results of further samples. % is set by controls: 0 for no effect and ±100 for the full control effect; potency is the fitted concentration of half-maximal effect. A portion of the library; count on the stated rates, not on these rows.
SMILES,VDR inh
CCC(C)n1c(SCC(=O)Nc2cc(C)on2)nc2ccccc2c1=O (stereo not drawn),-7.3%
COc1ccc(NC(=O)C(c2cc3c(cc2[N+](=O)[O-])OCO3)N(C)Cc2ccccc2)cc1 (stereo not drawn),5.9%
CSc1ccc(/C=C/c2ccc3cccc(O)c3n2)cc1,-6.0%
O=C(OCC(=O)N(Cc1ccccc1)Cc1ccccc1)c1ccccc1O,24.7%
CN(c1ccccc1)S(=O)(=O)c1nnc(NC(=O)c2ccco2)s1,6.3%&-3.6%
COc1cccc(CN2CCNC(=O)C2CC(=O)NCc2cc(C(C)C)no2)c1 (stereo not drawn),8.1%
COCCNC(=S)NNC(=O)c1cc(-c2cccnc2)nc2ccccc12,21.4%
CCOC(=O)C1CCN(C(=S)Nc2cc(OC)c(OC)cc2C(=O)OC)CC1,-3.0%
Cc1ccccc1C(=O)Nc1ccc(C(=O)OCc2cc(=O)n3nc(C(C)C)sc3n2)cc1,4.9%
Cc1cc(-n2nc(C)cc2C)n2nc(C)c(-c3ccccc3)c2n1,4.9%

# Taken from above:
# CCOC(=O)C1CCN(C(=S)Nc2cc(OC)c(OC)cc2C(=O)OC)CC1 in VDR inh = -3.0%
# CCC(C)n1c(SCC(=O)Nc2cc(C)on2)nc2ccccc2c1=O (stereo not drawn) in VDR inh = -7.3%
# COc1cccc(CN2CCNC(=O)C2CC(=O)NCc2cc(C(C)C)no2)c1 (stereo not drawn) in VDR inh = 8.1%

# (cont.)
SMILES,VDR inh
Oc1ccc(/C=N/Nc2ccc(C(F)(F)F)cn2)cc1,13.5%
O=C1C(Cc2ccccc2)Nc2ncnc(N3CCc4ccccc4C3)c2N1Cc1ccccc1 (stereo not drawn),-16.7%
COc1ccc(-n2c(Cn3c(=O)sc4ccccc43)nnc2SCC(=O)N2CCOCC2)cc1,-22.1%
CCCc1noc2c1/C(=N\O)CCC2,-9.3%
Cc1ccc(S(=O)(=O)N2CCC(C(=O)NNC(=O)C3CC3)CC2)cc1Cl,1.1%
Nc1n[nH]c2c1C1(CCCC1)Cc1ccccc1-2,2.4%
COc1ccc(OCCC(=O)NC2=NCCS2)cc1,-9.7%
Cc1ccc2oc(C(=O)Nc3cc(C)on3)c(C)c2c1,1.6%
CC1CCCN(C(=O)COC(=O)c2n[nH]c3ccccc23)C1 (stereo not drawn),-8.2%
OCCC1CN(Cc2cccn2-c2ccccn2)CCN1Cc1ccccc1 (stereo not drawn),3.3%

# A different layout for part of the listing above:
SMILES	VDR inh
CCCc1noc2c1/C(=N\O)CCC2	-9.3%
Cc1ccc(S(=O)(=O)N2CCC(C(=O)NNC(=O)C3CC3)CC2)cc1Cl	1.1%
Nc1n[nH]c2c1C1(CCCC1)Cc1ccccc1-2	2.4%
COc1ccc(OCCC(=O)NC2=NCCS2)cc1	-9.7%
Cc1ccc2oc(C(=O)Nc3cc(C)on3)c(C)c2c1	1.6%

# (list continues)
SMILES,VDR inh
O=C(Nc1ccc(N2CCN(c3ccccc3)CC2)c(F)c1)C1CC1,-3.7%
O=C(c1ccoc1)N1CCC2(CC1)Oc1ccc(Cl)cc1C(=O)C21CC(c2ccc(Cl)cc2)=NO1 (stereo not drawn),-11.3%
COc1ccccc1N1CCN(c2ccnc3cc(Cl)ccc23)CC1,3.1%
Cc1csc(NC(=O)c2nc3nccc(C)n3n2)n1,-26.6%
Cc1c(NC(=O)C(C)OC(=O)c2cc(Cl)nc(Cl)c2)c(=O)n(-c2ccccc2)n1C (stereo not drawn),-7.8%
Cc1cc(C)n(-c2ccc(C(=O)OCC(=O)N3CCN(c4ccccc4)CC3)cc2)n1,7.1%
Cc1ccc(F)c(NC(=O)c2c(-c3ccccc3)noc2C)c1,13.7%
COc1cc(OC)cc(C(=O)Nc2ccc(S(=O)(=O)N(C)C)cc2)c1,0.6%
C=CCc1c(C)nc2nc(SCC(=O)Nc3ccc(OCC)cc3)nn2c1C,-0.1%
CCOC(=O)c1c(C)n(C)c2cc(-c3ccc(F)cc3)c(O)cc12,-28.7%

# Part of the list above in order of length of the SMILES, ascending.
SMILES,VDR inh
Cc1ccc(F)c(NC(=O)c2c(-c3ccccc3)noc2C)c1,13.7%
CCOC(=O)c1c(C)n(C)c2cc(-c3ccc(F)cc3)c(O)cc12,-28.7%
COc1cc(OC)cc(C(=O)Nc2ccc(S(=O)(=O)N(C)C)cc2)c1,0.6%
Cc1cc(C)n(-c2ccc(C(=O)OCC(=O)N3CCN(c4ccccc4)CC3)cc2)n1,7.1%
Cc1c(NC(=O)C(C)OC(=O)c2cc(Cl)nc(Cl)c2)c(=O)n(-c2ccccc2)n1C (stereo not drawn),-7.8%

# Next part:
SMILES,VDR inh
CC1CN(S(=O)(=O)c2ccc(C(=O)NCCCn3ccnc3)cc2)CC(C)O1 (stereo not drawn),-2.5%
FCCCOc1ccc(CN2CCN(c3ccccc3F)CC2)cc1,2.7%
Cc1ccc2oc(=O)n(CCCOc3ccccc3C)c2c1,0.4%
Cc1cc(C(F)F)n2ncc(C(=O)N3CCCCC3)c2n1,3.5%
Clc1cccc(CON/C=N/c2ncnc3sccc23)c1,2.3%
O=C(/C=C/c1ccc(OCc2c(F)cccc2Cl)cc1)N1CCOCC1,-12.6%
COc1ncnc(OC)c1NC(=O)c1ccc(F)cc1,-10.4%
Cc1nc2cc(-c3cccc(F)c3)nn2c(C)c1CCC(=O)NC1CCCCC1,-6.9%
COc1ccccc1NC(=O)N(c1c(N)n(Cc2ccccc2)c(=O)[nH]c1=O)C1CCCC1,-4.7%
Cn1c(=O)c2cc(S(=O)(=O)N3CCN(c4cccc(C(F)(F)F)c4)CC3)ccc2n(C)c1=O,14.5%

# Among those listed so far, 2 have two or more sulfur atoms.
SMILES,VDR inh
CN(c1ccccc1)S(=O)(=O)c1nnc(NC(=O)c2ccco2)s1,6.3%&-3.6%
COc1ccc(-n2c(Cn3c(=O)sc4ccccc43)nnc2SCC(=O)N2CCOCC2)cc1,-22.1%

# New compounds follow:
SMILES,VDR inh
CCOC(=O)c1ccc2c(c1)N(CC#N)C(=O)C(C)(C)O2,-5.6%
O=C(CSc1nnc(COc2ccc(Br)cc2)o1)N1CCOCC1,0.7%
COc1ccccc1CN1CCCC(N2CCN(c3ccccc3OC)CC2)C1 (stereo not drawn),-13.6%
COc1ccc(NC(=S)N(CCN(C)C)C(C)c2ccncc2)cc1Cl (stereo not drawn),8.7%
CCOC(=O)c1ccccc1NC(=O)c1ccccc1SC,-7.0%
CN(CC(=O)Nc1ccc(Cl)c(C(F)(F)F)c1)C(=O)Cc1n[nH]c(=O)c2ccccc12,-11.5%
Cc1cc(C)c(C)c(S(=O)(=O)Nc2ccccc2C(=O)O)c1C,-5.0%
COc1ccc(NC(=O)N(C)C[C@H]2Oc3c(NC(=O)Nc4ccc5c(c4)OCO5)cccc3C(=O)N([C@H](C)CO)C[C@@H]2C)cc1,-1.4%
C=CCN1C(=O)C(Cc2ccc(OCC)cc2)S/C1=N\N=C\c1cccs1 (stereo not drawn),8.1%
O=C(NCC(c1ccco1)N1CCCCC1)c1ccc(S(=O)(=O)Nc2ccccc2Cl)cc1 (stereo not drawn),-1.7%
